N370S GC = inhibitors or activators of N370S glucocerebrosidase for Gaucher disease; P04062; N370S GC spleen homogenate, 4MU-glucoside fluorescence; Potency, µM (titrated, usually from 59.4 µM), without a hit: top-dose activity change, negative = inhibition, most hits filed as inhibitors; 330,000 tested, 0.092% active; AID 2101; active means well fitted inhibition curve with a large enough effect;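 further: 0% = full enzyme activity and -100% = no enzyme basal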
Active calls of the source: *; [ ] = dose if it differs, or a comment. Potency means the concentration at half of the fitted maximal effect.

Results for COC(=O)c1nc2n(n1)C(c1ccc([N+](=O)[O-])cc1)C(C(=O)Nc1ccc(Cl)cc1)=C(C)N2 (stereo not given) ?
N370S GC: -5.2%

How did COc1cc(C)ccc1OCCCON1C(=O)CCC1=O do in these assays?
N370S GC: -1.4%

What do the screens show for `O=C(CCc1ccccc1)Nc1cc2c(cc1Cl)OCCO2`?
N370S GC: -10.5%

How did CC1(C)Cc2c(sc(/N=C/N3CCCCC3)c2C#N)C(C)(C)N1 do in these assays?
N370S GC: 14.8%

Results for O=C(CN1C(=O)/C(=C/c2ccccc2)Sc2ccccc21)NCCCN1CCOCC1 ?
N370S GC: -8.1%

How did CCC(CC)C(=O)Nc1ccc(Sc2ccc([N+](=O)[O-])cc2)cc1 do in these assays?
N370S GC: 1.7%

How did CCn1nc(C)cc1C(=O)N(C)C1CCCN(Cc2ccccc2F)C1 (stereo not given) do in these assays?
N370S GC: -16.2%

What do the screens show for `COc1ccc(C(=O)O/N=C(\N)Cc2ccc(Cl)cc2Cl)cc1OC`?
N370S GC: -12.9%

Results for O=C(CSc1nnc(C2COc3ccccc3O2)o1)Nc1ccc(F)cc1Cl (stereo not given) ?
N370S GC: -2.4%

How did O=C(COc1ncnc2ccccc12)Nc1ccc(S(=O)(=O)N2CCOCC2)cc1 do in these assays?
N370S GC: 7.1%

Results for CCCCSc1ccc(NC(=O)c2cccnc2)cc1 ?
N370S GC: 0.6%

How did CCCCN(C)CCNC(=O)CN1C(=O)CSc2ccc(S(=O)(=O)N3CCCCC3)cc21 do in these assays?
N370S GC: 0.0%

Results for O=C(Nc1ccccc1)NC1(C(=O)NCc2ccco2)CCCCC1 ?
N370S GC: -2.4%

How did COc1ccccc1Nc1nc(-c2sc(NC(=O)C(C)(C)C)nc2C)cs1 do in these assays?
N370S GC: -2.2%

What do the screens show for `CC(C)(C)n1nc2c(c1NC(=O)c1ccco1)CS(=O)C2` (stereo not given)?
N370S GC: -19.0%

Of the compounds above, nine contain sulfur.
How did CC1(C)Cc2c(sc(/N=C/N3CCCCC3)c2C#N)C(C)(C)N1 do in these assays?
N370S GC: 14.8%

Results for O=C(CN1C(=O)/C(=C/c2ccccc2)Sc2ccccc21)NCCCN1CCOCC1 ?
N370S GC: -8.1%

How did CCC(CC)C(=O)Nc1ccc(Sc2ccc([N+](=O)[O-])cc2)cc1 do in these assays?
N370S GC: 1.7%

Results for O=C(CSc1nnc(C2COc3ccccc3O2)o1)Nc1ccc(F)cc1Cl (stereo not given) ?
N370S GC: -2.4%

How did O=C(COc1ncnc2ccccc12)Nc1ccc(S(=O)(=O)N2CCOCC2)cc1 do in these assays?
N370S GC: 7.1%

Results for CCCCSc1ccc(NC(=O)c2cccnc2)cc1 ?
N370S GC: 0.6%

How did CCCCN(C)CCNC(=O)CN1C(=O)CSc2ccc(S(=O)(=O)N3CCCCC3)cc21 do in these assays?
N370S GC: 0.0%

How did COc1ccccc1Nc1nc(-c2sc(NC(=O)C(C)(C)C)nc2C)cs1 do in these assays?
N370S GC: -2.2%

What do the screens show for `CC(C)(C)n1nc2c(c1NC(=O)c1ccco1)CS(=O)C2` (stereo not given)?
N370S GC: -19.0%

Fetched by structure from the list above:
How did COc1ccccc1Nc1nc(-c2sc(NC(=O)C(C)(C)C)nc2C)cs1 do in these assays?
N370S GC: -2.2%

Results for O=C(CSc1nnc(C2COc3ccccc3O2)o1)Nc1ccc(F)cc1Cl (stereo not given) ?
N370S GC: -2.4%

Next results follow:
How did COc1ccccc1-c1nc(SCC(=O)NCc2ccco2)c2c(=O)n(C)c(=O)n(C)c2n1 do in these assays?
N370S GC: -3.7%

What do the screens show for `CC1CCC(NS(=O)(=O)c2ccc3c(c2)CC(=O)N3)CC1` (stereo not given)?
N370S GC: -17.1%

Results for COc1ccccc1N1CCN(C(c2ccc(C)cc2)c2nnnn2C(C)C)CC1 (stereo not given) ?
N370S GC: -11.9%

What do the screens show for `C=C1C[C@@]23C[C@@]1(O)CCC2[C@@]12C=CC(O)[C@](C)(C(=O)O1)C2C3C(=O)O` (stereo not given in full)?
N370S GC: -3.8%

Results for Cc1ccc2nc(C)cc(C(=O)OCC(=O)Nc3cccnc3Cl)c2c1 ?
N370S GC: 10.6%

How did O=C(O)c1cc(-c2ccc(/C=N/Nc3ccc([N+](=O)[O-])cn3)o2)ccc1Cl do in these assays?
N370S GC: -14.2%

Results for O=S(=O)(c1ccc(F)c(F)c1F)N1CCN(C(=S)Nc2ccccc2)CC1 ?
N370S GC: 1.0%

What do the screens show for `O=C(c1cccs1)N1CCN(Cc2ccccc2[N+](=O)[O-])CC1`?
N370S GC: 3.1%

How did Cc1cc(C)nc(Oc2ccc(Br)cc2Br)n1 do in these assays?
N370S GC: -5.6%

How did COc1ccccc1N1CCN(C(=O)CCc2nnc3ccc(N4CCCC4)nn23)CC1 do in these assays?
N370S GC: 1.0%

How did Cn1c(=O)c2c(nc(Oc3ccc4c(c3)OCO4)n2Cc2ccc(Cl)cc2)n(C)c1=O do in these assays?
N370S GC: 3.2%

How did CCCCNC(=O)c1ccccc1NC(=O)CCC do in these assays?
N370S GC: -1.1%

Results for Nc1nc(Nc2ccccc2)nc2ccccc12 ?
N370S GC: -3.0%

How did Cc1nc2ccccc2nc1CN1CCN(Cc2ccc(F)c(F)c2)C(CCO)C1 (stereo not given) do in these assays?
N370S GC: -12.4%

Results for CCN(c1ccc(NS(=O)(=O)c2cc(Cl)ccc2Cl)cc1)C(C)C ?
N370S GC: -13.6%

How did O=C(CSCc1ccccc1Cl)NN1C(=O)c2ccccc2C1=O do in these assays?
N370S GC: 24.5%

Results for O=[N+]([O-])c1ccc(S(=O)(=O)NCC2COc3ccccc3O2)cc1 (stereo not given) ?
N370S GC: -10.9%

How did CC1CN(S(=O)(=O)c2ccc(C(=O)Nc3sccc3C(N)=O)cc2)CC(C)O1 (stereo not given) do in these assays?
N370S GC: -22.7%

What do the screens show for `COc1ccc(OC)c(NC(=O)C(CCS(C)(=O)=O)NC(C)=O)c1` (stereo not given)?
N370S GC: -2.2%

How did O=C(CCCN1C(=O)C(c2ccccc2)Oc2cccnc21)NCCc1ccc(Cl)cc1 (stereo not given) do in these assays?
N370S GC: 0.8%

What do the screens show for `c1ccc(-c2nn3cnnc3c3ccccc23)cc1`?
N370S GC: 15.5%

Results for COc1ccc(CCNC(=O)CSC2=NS(=O)(=O)c3cc(Cl)ccc3N2)cc1OC ?
N370S GC: -18.5%

What do the screens show for `Cn1c(SCC(=O)N/N=C/c2ccncc2)nc2ccccc21`?
N370S GC: -1.6%

How did CC(C)C1C(C#N)=C(N)Oc2n[nH]c(C(C)(C)C)c21 (stereo not given) do in these assays?
N370S GC: -24.6%

Results for COc1cc(-c2nc(CCNC(=O)c3ccco3)cs2)cc(OC)c1OC ?
N370S GC: -3.6%

How did Cc1ccccc1OCCOCCN1CCCCCC1 do in these assays?
N370S GC: -1.8%

What do the screens show for `COc1ccccc1C(=O)Nc1ccc2[nH]ncc2c1`?
N370S GC: 2.3%

Results for CCOc1ccc(C(=O)NCc2ccncc2)cc1 ?
N370S GC: 4.5%[2.35 µM]

What do the screens show for `O=C(CCNC(=O)C1CCN(S(=O)(=O)c2ccccc2)CC1)Nc1ccccc1`?
N370S GC: -9.0%

What do the screens show for `COc1ccc(Cn2c(=O)[nH]c3cc(C(=O)N4CCN(c5ccccc5F)CC4)ccc3c2=O)cc1`?
N370S GC: -7.3%

What do the screens show for `COc1cccc(/C=N/NC(=O)c2c(-c3ccccc3)noc2C)c1`?
N370S GC: 22.9%

How did COc1ccc(-c2noc(CCCC(=O)NC3CCCC3)n2)cc1OC do in these assays?
N370S GC: -9.1%

What do the screens show for `CCOc1cc(C(=O)OCC(=O)c2cc(C)n(CC3CCCO3)c2C)ccc1OCC(=O)N1CCOCC1` (stereo not given)?
N370S GC: -5.8%

What do the screens show for `CCOC(=O)c1cc(C(C)=O)c(=O)n(C)c1N`?
N370S GC: -12.4%

Results for Cc1ccc(N2CC(c3nc4ccccc4[nH]3)CC2=O)c(C)c1 (stereo not given) ?
N370S GC: 2.4%

What do the screens show for `CC(C)CCNC(=O)C(c1ccc(O)cc1)N(Cc1ccco1)C(=O)CCC(=O)Nc1nccs1` (stereo not given)?
N370S GC: -13.2%

How did COc1ccc(NC(=S)N2CCCC2)cc1 do in these assays?
N370S GC: 7.9%

Results for O=C(/C=C/c1ccccc1)Oc1ccc(C(=S)N2CCOCC2)cc1 ?
N370S GC: 6.0%

What do the screens show for `Cc1ccc(CNC(=O)C2CCCN(S(=O)(=O)c3cnc[nH]3)C2)cc1` (stereo not given)?
N370S GC: 10.7%

What do the screens show for `O=C(CCCNS(=O)(=O)c1cccc2nsnc12)NCc1ccc(F)cc1`?
N370S GC: 3.8%

How did C=CCN=c1scc(-c2ccc3c(c2)NC(=O)CO3)n1/N=C(\C)c1ccccn1 do in these assays?
N370S GC: -9.7%

How did Cc1cccc(C)c1OCC(=O)OCC(=O)c1ccc2c(c1)NC(=O)CO2 do in these assays?
N370S GC: -1.4%

How did COc1ccc(Br)cc1CN(C)CC(=O)NCCc1ccccc1 do in these assays?
N370S GC: -28.6%

Results for CCCCn1c(CN2CCN(CCO)CC2)nc2ccccc21 ?
N370S GC: 6.7%

How did CCN1C(=O)C(=O)N(CC(=O)N2CCN(c3ccccc3)CC2)C1=O do in these assays?
N370S GC: -0.3%

How did COCCCNC(=O)Cn1cc(/C=C(\C#N)C(=O)NC2CC2)c2ccccc21 do in these assays?
N370S GC: -7.3%

What do the screens show for `CC(C)C(=O)NNS(=O)(=O)c1ccccc1`?
N370S GC: -4.9%

What do the screens show for `Brc1cc2c(cc1COc1ccc(-c3nn[nH]n3)cc1)OCO2`?
N370S GC: 6.0%

What do the screens show for `COc1ccc(F)cc1S(=O)(=O)Nc1ccc2c(c1)OCCO2`?
N370S GC: -1.2%

Results for COC(=O)c1[nH]c2ccc(Cl)cc2c1NC(=O)CCN1CCN(C2CCCCC2)CC1 ?
N370S GC: -7.5%

Results for CCOC(=O)Cc1csc(NC(=O)/C=C/c2cccc(Br)c2)n1 ?
N370S GC: -4.2%

How did N#CCSc1ccccc1NC(=O)CN1C(=O)C2CC=CCC2C1=O (stereo not given) do in these assays?
N370S GC: -22.1%

How did CCCc1nn(-c2cc(Cl)ccc2OC)c2c1C(=O)CC(C)(C)C2 do in these assays?
N370S GC: 7.0%

Results for Cc1ccc2c(ccc(=S)n2C)c1 ?
N370S GC: -14.2%

Results for Cc1nc(SCC(=O)NCC(F)(F)F)c2c(-c3cccs3)csc2n1 ?
N370S GC: 2.0%

How did O=C(CN1C(=O)S/C(=C\c2ccccc2)C1=O)NNC(=O)c1ccccc1O do in these assays?
N370S GC: 4.0%

How did COc1cc(C(=O)NCCNC(=O)c2ccc(C)nc2)cc(OC)c1OC do in these assays?
N370S GC: 0.8%

How did COc1ccc(C2=NN(C(=O)CSc3nnc(C)c(=O)n3N)C(c3ccco3)C2)cc1 (stereo not given) do in these assays?
N370S GC: 6.4%

How did CCC(=O)Nc1cc(-c2nn(C)c(=O)c3ccccc23)ccc1N1CCOCC1 do in these assays?
N370S GC: 2.8%[12.8 µM]

How did COCCN1C(=O)C(CC(=O)Nc2ccc(C(=O)O)cc2)SC1=Nc1ccccc1 (stereo not given) do in these assays?
N370S GC: -11.4%

Results for Cc1c(Cl)c([N+](=O)[O-])nn1CC(=O)NC12CC3CC(CC(C3)C1)C2 ?
N370S GC: 19.8%

Results for CCN(Cc1cnn(C)c1)C(=O)C1CCC(=O)N(CCc2ccc(OC)cc2)C1 (stereo not given) ?
N370S GC: -1.6%

What do the screens show for `CN(CC(=O)Nc1ccc(S(N)(=O)=O)cc1)Cc1ccccc1F`?
N370S GC: -1.9%

How did Cc1cccc(NC(=O)c2ccc(S(=O)(=O)C(F)F)cc2)c1C do in these assays?
N370S GC: 15.3%

What do the screens show for `CCOc1ccc(S(=O)(=O)N(C)CCO)cc1-c1nc2c(C(C)(C)C)nn(C)c2c(=O)[nH]1`?
N370S GC: -7.8%

Results for CC(=O)Nc1ccc(C(O)(C(F)(F)F)C(F)(F)F)cc1 ?
N370S GC: 0.6%

Results for Cc1ccc(NC(=O)C2=C(O)c3ccccc3N(C)S2(=O)=O)cc1 ?
N370S GC: -15.1%

Results for COc1ccc(C(=O)C(c2ccccc2)N2CCOCC2)cc1 (stereo not given) ?
N370S GC: 4.1%

How did COCCCNCCOc1ccc(C(C)(C)c2ccccc2)cc1 do in these assays?
N370S GC: -7.9%

How did CCC(=O)c1c(NC(CC)CO)cc(C)oc1=O (stereo not given) do in these assays?
N370S GC: 9.9%

What do the screens show for `Cc1ccc(C)c(OCc2ccc(C(=O)N3N=C(C(F)F)CC3(O)C(F)F)o2)c1` (stereo not given)?
N370S GC: -6.8%

What do the screens show for `Cc1ccnn1CCC(=O)N1CCCC(CCC(=O)N2CCN(c3ccccn3)CC2)C1` (stereo not given)?
N370S GC: 4.2%

What do the screens show for `CC(C)Cn1c(CCNC(=O)c2ccco2)nc2ccccc21`?
N370S GC: -18.8%

How did COc1ccc(C[C@@H]2CN3C(=NC[C@@H]3C)N2C[C@H](C)NC(=O)CCC2CCCCC2)cc1 do in these assays?
N370S GC: -8.3%

Results for Cc1ccc(C(=O)Nc2cc(C)c(OCC(=O)N3CCOCC3)c(C)c2)cc1 ?
N370S GC: -3.2%

How did COc1ccc(C(CC(=O)N2CCCCC2)C(C)C)cc1 (stereo not given) do in these assays?
N370S GC: -2.9%

What do the screens show for `CC(=O)N(Cc1cccs1)C1CCOC(C)(C)C1` (stereo not given)?
N370S GC: -2.1%

How did CCc1cccc(N(C(=O)c2csnn2)C(C(=O)NC(C)(C)CC)c2ccccn2)c1 (stereo not given) do in these assays?
N370S GC: 1.7%

What do the screens show for `O=C(C1CCN(S(=O)(=O)c2cccc3cccnc23)CC1)N1CCN(C2CCCCC2)CC1`?
N370S GC: -1.7%

Results for Cc1cccc(NC(=O)C2CCN(S(=O)(=O)c3ccc(Cl)cc3)CC2)n1 ?
N370S GC: 0.1%

What do the screens show for `CCC(=O)N[C@@H]1CC(C(C)(C)NC(=O)CC)CC=C1C` (stereo not given in full)?
N370S GC: 3.4%

How did COc1ccc(NC2CCCN(C(=O)CCc3cccc(F)c3)C2)cc1 (stereo not given) do in these assays?
N370S GC: 1.8%

What do the screens show for `COC(=O)c1ccccc1S(=O)(=O)C(C)(C)C`?
N370S GC: 4.4%

This is a subset; most or all hits stand in other tables.
